CBX7 AlphaScr: CBX7 inhibition, primary AlphaScreen; 66,000 compounds, 1.1% hits; normalised signal (fraction of DMSO) (no concentration beside the values); AlphaScreen His6-CBX7 / biotin-H3K27me3 peptide binding; hits give low values; in the data active means normalised signal below about 0.5;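 further: 100 nL library stock added to about 20 µL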
Target sequence (O95931 whole entry, looked up): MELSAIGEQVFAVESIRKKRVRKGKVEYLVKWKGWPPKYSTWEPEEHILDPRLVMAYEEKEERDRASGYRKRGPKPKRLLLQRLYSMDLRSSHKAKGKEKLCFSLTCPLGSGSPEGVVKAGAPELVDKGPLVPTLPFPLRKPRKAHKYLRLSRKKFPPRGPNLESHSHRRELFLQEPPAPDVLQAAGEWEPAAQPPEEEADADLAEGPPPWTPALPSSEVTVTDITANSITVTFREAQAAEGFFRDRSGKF
CBX7 AlphaScr z-score: recorded beside CBX7 AlphaScr, whose call it bears; z-score; measured here: z-score of CBX7 signal; some inactives read as strong as hits; reference of the scale not given here;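 same signal on another scale; lower means less binding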
Starred values were filed as active, the others as inactive; & = joins results of further samples. The list is partial; the hit share may differ from the screen's.

Compound	CBX7 AlphaScr z-score	CBX7 AlphaScr
Cc1cc(C)c(-c2csc(NC(=O)c3ccc(S(=O)(=O)N4CC(C)CC(C)C4)cc3)n2)c(C)c1 (stereo not drawn)	0.997	1.03
CCCOP(=O)(OCCC)c1nc(-c2ccccc2)oc1NC	-0.826	0.868
Cc1cc(=O)n2nc(N3CCCC(C(=O)NCC(C)c4ccccc4)C3)sc2n1 (stereo not drawn)	1.7	1.18
O=C1CC(c2nc3ccccc3n2Cc2ccc(F)cc2)CN1c1ccccc1F (stereo not drawn)	1.91	1.27
COc1cc(NS(=O)(=O)c2ccc3c(c2)CC(C)N3C(C)=O)cc(OC)c1 (stereo not drawn)	-0.024	0.999
CC(NC(=O)CCn1nc(-c2ccc(Cl)cc2)c2ccccc2c1=O)c1ccccc1 (stereo not drawn)	0.805	1.03
COc1ccccc1-n1nc(C(=O)Nc2ccc(C)cc2Br)c2ccccc2c1=O	1.97	1.09
CCOC(=O)c1cnc2ccccc2c1Nc1cccc(C(=O)O)c1	-0.166	0.994
CCOc1ccc(Nc2cc(C(=O)NCCCOC(C)C)c3ccccc3n2)cc1	-1.32	0.953
Cc1cc(=O)n2nc(N3CCC(C(=O)NC4CCCC(C)C4C)CC3)sc2n1 (stereo not drawn)	2.49	1.27
Cc1sc2ncn(CC(=O)O)c(=O)c2c1S(=O)(=O)N1CCOCC1	-0.693	0.964
CCN(CC)CCNC(=O)Cn1ncc2c1-c1cc(C)ccc1OC2	2.72	1.1
COc1cc(OC)c(N(C)C(=O)CCc2nc(-c3ccccc3F)no2)cc1Cl	0.966	1.06
CCOC(=O)Cc1csc(NC(=O)CN2C(=O)c3ccccc3C2=O)n1	2.59	1.09
COc1ccc(-c2nc(SCC(=O)NCC3CCCO3)c(-c3ccc(C)cc3)[nH]2)cc1OC (stereo not drawn)	-3.03	0.815
CCOC(=O)N1CCN(C(=O)c2ccc3c(c2)N(Cc2ccc(F)cc2)CCS3)CC1	-2.26	0.93
Cc1cc(C)nc(NS(=O)(=O)c2ccc(NC(=O)c3ccccc3C)cc2)n1	1.8	1.09
CCN(CC)S(=O)(=O)c1ccc2c(c1)N(CC(=O)NCCc1ccc(Cl)cc1)C(=O)CS2	2.09	1.06
O=C1CC(c2nc3ccccc3n2CCOc2ccccc2Cl)CN1Cc1ccccc1 (stereo not drawn)	-1.09	0.826
CCOC(=O)c1cc(-c2ccccc2)n(CCC(=O)N2CC(C)CC(C)C2)c1C (stereo not drawn)	-3.33	0.815
CCOC(=O)c1cc(-c2ccc(OC)cc2)n(CCC(=O)Nc2cc(OC)cc(OC)c2)c1C	-1.35	0.874
COc1ccc(CNC(=O)c2ccc3c(c2)N(Cc2ccccc2)CCS3)cc1	-0.213	0.839
COc1ccccc1NC(=O)c1ccc(-c2nn(C)c(=O)c3ccccc23)cc1	1.63	1.04
Cc1ccc(NC(=O)CSc2nnc(Cc3cc(=O)[nH]c(=O)[nH]3)n2-c2ccccc2)cc1	3.06	1.09
COc1ccc(C)cc1N(C)C(=O)Cn1nc(Cc2cccnc2)c2ccccc2c1=O	0.108	1
CCOc1ccccc1NC(=O)CCc1nc(-c2ccccc2F)no1	-0.299	0.99
CCOc1ccc(C(=O)c2cn(Cc3ccc(F)cc3)c3ccccc3c2=O)cc1	-3.73	0.61
COc1ccccc1CN1C(=O)CN(C2CCCCCC2)C(=O)C1c1ccc(F)cc1 (stereo not drawn)	-2.44	0.859
COc1ccc(-c2[nH]c(-c3ccccc3)nc2SCC(=O)NC2CCCC2)cc1	-2.81	0.894
COc1cccc(CNC(=O)CCc2nc(-c3ccc(C)cc3)no2)c1	1.5	1.05
CCCOc1ccc(C(=O)Nc2cccc(-c3nc4ncccc4o3)c2C)cc1	-0.226	0.994
O=C1Nc2ccccc2S(=O)(=O)N1c1ccc(Cl)cc1	-0.349	0.954
CCC(=O)N1CCc2cc(S(=O)(=O)NC3CCCCC3C)ccc21 (stereo not drawn)	1.75	1.16
Cc1ccc(SCc2cn3c(C)cc(C)nc3n2)cc1	-0.593	0.973
CSc1nc(NC(N)=O)c2c3c(sc2n1)CCCCC3	-0.957	0.92
NC(=O)C1CCN(c2nc(-c3ccccc3F)nc3ccccc23)CC1	0.0217	1
Cc1cc(C)nc(Nc2ncc(O)n2-c2ccccc2C)n1	1.95	1.56
O=C(Cc1ccc(-n2c(=O)[nH]c3ccsc3c2=O)cc1)NCc1ccc(Cl)cc1	-1.45	0.935
CN(C)c1ccc(-c2nc3ncccn3c2Nc2ccccc2)cc1	-0.0756	0.993
CC(C)NC(=O)c1ccc2c(c1)N(Cc1ccc(Cl)cc1)C(=O)c1ccccc1S2(=O)=O	0.00365	1
COc1ccc(-c2csc(NC(=O)CCOc3ccccc3)n2)cc1C	-1.76	0.949
Cc1ccc(N(C)C(=O)Cc2c(C(=O)O)[nH]c3ccc(Cl)cc23)cc1C	1.63	1.06
FC(F)(F)c1ccc2nc(-c3ccccc3)c(-c3ccccc3)nc2c1	1.56	1.24
Cc1cccc(N2CCN(CCNC(=O)Nc3ccccc3C(F)(F)F)CC2)c1C	0.0179	1.01
CCOC(=O)c1cc(-c2ccccc2)n(CCC(=O)NC2CCCC2)c1C	0.256	1.01
COc1cccc(N2CCN(C(=O)CC(C)(C)CC3=NS(=O)(=O)c4ccccc4N3)CC2)c1	-5.02	0.807
CCc1ccccc1N(C)C(=O)Cc1c(C(=O)O)n(CC)c2ccccc12	0.221	1.01
C(#CCN1CCCCC1)COC(c1ccccc1)c1ccccc1	-0.386	0.981
Cn1c(=O)[nH]c(=O)c2c1nc(CN1CCN(c3cccc(Cl)c3)CC1)n2CCCc1ccccc1	-1.31	0.964
COc1ccc(-n2nnc3c(=O)n(CC(=O)N4CCc5ccccc54)cnc32)cc1	-0.745	0.961

More compounds:
Compound	CBX7 AlphaScr z-score	CBX7 AlphaScr
O=C(Nc1cc(F)ccc1F)c1ccc2c(=O)n3c(nc2c1)CCCCC3	-2.26	0.862
O=C(Nc1ccc(C(F)(F)F)cc1)C1CCCN(S(=O)(=O)c2cccc3cccnc23)C1 (stereo not drawn)	0.107	1
CCc1ccc(NC(=O)Cn2cnc3c(nnn3Cc3ccc(C)cc3)c2=O)cc1	-2.92	0.822
CCN1CCN(c2cc(C)c3cc(NC(=O)CCC(=O)Nc4ccc(C)c(F)c4)ccc3n2)CC1	2.38	1.05
Cc1cccc(C(=O)Nc2c(C(=O)NCc3ccco3)cnn2-c2ccccc2)c1	-1.08	0.956
CCOc1ccc(CCNC(=O)C2CCN(c3ccc(N4CCOCC4)nn3)CC2)cc1OCC	-0.209	0.968
CCN(C(=O)Cc1c(C(=O)O)n(C)c2ccccc12)c1ccc(F)cc1	3.01	1.16
CCOC(=O)c1c(NC(=O)c2ccc(OC)c(OC)c2)sc(C)c1C	1.54	1.04
CC(C)CCNC(=O)CN1CCN(Cc2ccccc2Cl)C1=O	1.94	1.07
O=C(CN1CCN(Cc2cccc(Cl)c2)C1=O)N1CCCCCC1	-0.951	0.928
CC1CCC(NC(=O)C2CCN(c3nc4ccc(Br)cc4s3)CC2)CC1 (stereo not drawn)	1.2	1.05
Cc1onc(-c2ccccc2Cl)c1C(=O)N1CCN(C)CC1	0.782	1.04
O=C(Nc1ccccc1-c1nc2ccccc2[nH]1)c1cccc(N2C(=O)CCC2=O)c1	-0.104	0.907
NC(=O)NC(=O)CC1Sc2ccc(C(F)(F)F)cc2NC1=O (stereo not drawn)	-0.279	0.987
COC(=O)c1ccccc1NC(=O)CS(=O)(=O)Cc1nc(-c2cccc(OC)c2)oc1C	-0.434	0.984
Cc1ccc(CNC(=O)CN(C)S(=O)(=O)c2ccc3c(c2)n(C)c(=O)c(=O)n3C)cc1	1.55	1.17
CCOc1ccc(S(=O)(=O)c2cn(Cc3cc(C)ccc3C)c3ccc(OC)cc3c2=O)cc1	-2.82	0.925
Cc1ccc(CN2C(=O)Cn3cccc3C2C(=O)NC2CCCCCCC2)cc1 (stereo not drawn)	0.151	1.01
COC(=O)c1cnn2c(C)c(Cc3ccccc3F)c(C)nc12	0.732	1.03
Fc1ccccc1Nc1nc(-c2cccs2)cs1	-0.654&-9.29	0.975&0.656
Cc1c(C(=O)Nc2ccccc2F)sc2ncnc(N3CCN(c4ccccc4)CC3)c12	-0.0673	0.995
O=C(CC1(O)C(=O)Nc2ccc(Cl)cc21)c1ccc(Br)cc1 (stereo not drawn)	1.47	1.04
COc1ccccc1-c1nnc(SCC(=O)N2CCC(C)CC2)o1	-0.221	0.904
COc1ccc(NC(=O)c2cnn(-c3ccc(C)c(C)c3)c2C2CCNCC2)cc1Cl	-2.24	0.883
COc1ccc2c(c1)c(=O)c(S(=O)(=O)c1ccccc1)cn2Cc1ccc(Cl)cc1	1.36	1.07
Cc1ccc(Nc2ncc(C(=O)Nc3ccc(Oc4ccccc4)cc3)c3ccccc23)cc1Cl	5.45	1.19
COc1cccc(-c2nnc(SCc3nc4ccccc4[nH]3)n2-c2ccccc2)c1	0.246	1.01
O=C(CCn1nc(-c2ccc(Cl)cc2)ccc1=O)NCCCN1CCCCCC1	3.46	1.18
COc1ccc(N(CC(O)Cn2c(C)nc3ccccc32)S(=O)(=O)c2ccc(C)cc2)cc1 (stereo not drawn)	1.21	1.02
Clc1cc2c(cc1-c1nc(-c3ccccc3)c(-c3ccccc3)[nH]1)OCO2	-0.694&-1.86	0.974&0.955
COCCCNC(=O)C1CCN(Cc2nc(-c3ccccc3F)oc2C)CC1	-0.111	0.996
Cc1[nH]c2c(Br)ccc3c2c1CCN1C(=O)OC(C)(C)C31C (stereo not drawn)	-1.23	0.956
CCn1cc(C(=O)N(CCc2ccccc2)Cc2ccccc2)c(=O)c2ccc(C)nc21	0.938	1.07
O=C(COc1ccccc1)Nc1c2c(nn1-c1cccc(Cl)c1)CSC2	1.33	1.08
CCOc1ccc(C2=C(Cl)C=C(c3ccc(C)cc3)c3ccccc3O2)cc1	-0.0352	0.998
Cn1nc(-c2ccc(C(=O)NCc3ccccc3)cc2)c2ccccc2c1=O	-0.915	0.98
Cc1ccc(-c2nc3ccccc3n3nnnc23)cc1	-0.596	0.98
CN(Cc1ccccc1)S(=O)(=O)c1ccc2c(c1)CCN2C(=O)C1CC1	-0.129	0.996
CCN(CC)S(=O)(=O)c1cccc(C(=O)Nc2nc(COc3ccccc3)cs2)c1	-1.76	0.941
Cc1cc2cc(CCNC(=O)CC3CCCCC3)c(=O)[nH]c2cc1C	0.568	1.09

Reformatted field by field: entries from further up.
> CCOc1ccc(C2=C(Cl)C=C(c3ccc(C)cc3)c3ccccc3O2)cc1
- CBX7 AlphaScr z-score = -0.0352
- CBX7 AlphaScr = 0.998
> Cn1nc(-c2ccc(C(=O)NCc3ccccc3)cc2)c2ccccc2c1=O
- CBX7 AlphaScr z-score = -0.915
- CBX7 AlphaScr = 0.98
> Cc1ccc(-c2nc3ccccc3n3nnnc23)cc1
- CBX7 AlphaScr z-score = -0.596
- CBX7 AlphaScr = 0.98
> CN(Cc1ccccc1)S(=O)(=O)c1ccc2c(c1)CCN2C(=O)C1CC1
- CBX7 AlphaScr z-score = -0.129
- CBX7 AlphaScr = 0.996

New compounds follow.
Compound	CBX7 AlphaScr z-score	CBX7 AlphaScr
CCOc1ccccc1-n1c(C)nc2cc(C(=O)NCCOC)ccc21	-1.41	0.947
COc1cc2c(cc1OC)C(c1cccc(F)c1)N(C(C)=O)CC2 (stereo not drawn)	0.539	1.04
O=C(Nc1c2c(nn1-c1ccc(Cl)cc1)CS(=O)(=O)C2)c1ccc(Cl)cc1	-0.355	0.946
O=C(Nc1ccc(OC(F)(F)F)cc1)c1cc(-c2cccs2)on1	-0.786	0.943
Cc1oc(-c2ccccc2Cl)nc1Cn1c(SCc2cccc(F)c2)nc2ccncc21	-4	0.867
Fc1ccc(Nc2nnc(Cc3ccncc3)c3ccccc23)cc1	0.401	1.02
COc1ccc(NC2c3ccccc3C(=O)N2c2ccccc2C)cc1OC (stereo not drawn)	-2.24	0.933
CCN(CCCNC(=O)c1cc2c(-c3cccc(OC)c3)nn(C)c2s1)c1cccc(C)c1	-5.4	0.807
Cc1ccccc1NC(=O)c1ccc2c(=O)n3c(nc2c1)CCCCC3	-1.42	0.913
Cc1cccc(N2C(=O)CC(N3CCN(c4ccc5c(c4)OCO5)CC3)C2=O)c1 (stereo not drawn)	-1.36	0.914

Two entries picked at random from those above:
Compound	CBX7 AlphaScr z-score	CBX7 AlphaScr
COc1ccc(NC2c3ccccc3C(=O)N2c2ccccc2C)cc1OC (stereo not drawn)	-2.24	0.933
Cc1cccc(N2C(=O)CC(N3CCN(c4ccc5c(c4)OCO5)CC3)C2=O)c1 (stereo not drawn)	-1.36	0.914

The results go on.
Compound	CBX7 AlphaScr z-score	CBX7 AlphaScr
O=C(NC1CCCCCC1)C1c2ccccc2C(=O)N1Cc1ccc(F)cc1 (stereo not drawn)	1.3	1.1
Cc1ccc(-n2nnnc2SCc2ccccn2)cc1C	-2.56	0.765
COc1ccccc1NC(=O)c1ccc(CNc2c(N3CCCCC3)c(=O)c2=O)cc1	0.883	1.38
Cc1ccccc1Cn1cc(NC(=O)c2cc(-c3ccc4c(c3)OCO4)on2)cn1	-0.882	0.968
CC1(C)CC(=O)c2sc(NC(=O)c3cc(Cl)ccc3Cl)nc2C1	2.26	1.08
Cc1c(-c2ccc(Cl)cc2)nc2ccccc2c1C(=O)NCc1ccccc1	-0.199	0.943
Cc1ccccc1CN1C(=O)c2ccccc2Sc2ccc(C(=O)NCc3cccs3)cc21	0.248	1.01
CC1(C)CC(=O)C2=C(C1)NC(=O)CC2c1ccc(F)cc1 (stereo not drawn)	0.0841	1.06
